# Source: PubChem (National Center for Advancing Translational Sciences (NCATS))
# VDR inh: Inhibitors of the vitamin D receptor (VDR): qHTS; Vitamin D3 receptor (Homo sapiens), P11473; VDR-SRC2-3 peptide fluorescence polarization, 2 h; Potency, µM, without a hit: max response, negative = inhibition, usual class: inhibitors; actives 0.93% (n = 400,000); AID 504847, 2011; active = well fitted inhibition curve with a large enough effect; inconclusive = small, poorly fitted or top-dose-only effect, or another doubt; inactive = no such curve, though single readings can be large or run the other way; note: series mostly up to about 120 µM
# Target sequence (P11473 whole entry, looked up): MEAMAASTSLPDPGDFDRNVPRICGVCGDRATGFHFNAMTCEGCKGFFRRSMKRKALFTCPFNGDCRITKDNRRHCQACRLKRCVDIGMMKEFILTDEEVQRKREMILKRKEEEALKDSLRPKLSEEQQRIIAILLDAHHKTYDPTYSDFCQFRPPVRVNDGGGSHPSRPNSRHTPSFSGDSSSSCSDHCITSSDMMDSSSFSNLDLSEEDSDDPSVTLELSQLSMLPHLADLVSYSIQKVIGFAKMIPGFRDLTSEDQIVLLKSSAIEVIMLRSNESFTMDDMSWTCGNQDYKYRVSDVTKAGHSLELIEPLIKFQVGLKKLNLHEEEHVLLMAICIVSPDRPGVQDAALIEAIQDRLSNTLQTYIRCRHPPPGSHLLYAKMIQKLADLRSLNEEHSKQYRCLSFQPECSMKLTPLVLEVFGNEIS
#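 Fluorescence polarization assay measuring small-molecule disruption of VDR binding to the coregulator peptide SRC2-3. Compounds were pin-transferred (23 nl) into the reagent mix and incubated 2 h at room temperature before reading.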
# Starred values were filed as active, the others as inactive; ? = inconclusive; & = joins results of further samples. % is set by controls: 0 for no effect and ±100 for the full control effect; potency is the fitted concentration of half-maximal effect. Not all compounds are listed; rates above refer to the full screens.
VDR inh | compound
-5% | CC(C)c1nc(SCC(=O)NC2CCCC2)c2ccccc2n1
7% | COc1cccc(NC(=O)c2ccccc2-c2nc(-c3ccc(Cl)cc3)no2)c1
-4% | CCCc1cc2c(=O)c(-c3ccc4c(c3)OCCO4)coc2cc1OC(=O)c1ccco1
-7% | CCc1ccccc1NC(=O)CSc1nnc([C@@H](NC(=O)OC(C)(C)C)C(C)C)o1
0% | C=C(C)Cn1c(SCC(=O)N/N=C/c2ccccc2)nc2ccccc2c1=O
-7%&0% | CS(=O)(=O)N1CCc2cc(C(=O)N3CCN(c4ccccc4)CC3)ccc21
-19%&-19% | O=C1c2ccccc2NC(c2cccc(O)c2)N1Cc1ccco1 (stereo unspecified)
-6% | COCc1nc(-c2ccc(-c3ccc(C)cc3)nc2OC)no1
9% | CCc1cc2c(C)cc(=O)oc2cc1OC(=O)C1CCCN1C(=O)OC(C)(C)C (stereo unspecified)
? | COc1ccccc1C(=O)NC(=S)NC12CC3CC(CC(C3)C1)C2
-12% | COc1ccc(C(CCNCc2ccccc2)c2ccc(F)cc2)cc1 (stereo unspecified)
6% | Cc1ccc(N(C(=O)c2ccco2)C2C=CS(=O)(=O)C2)cc1 (stereo unspecified)
-9% | CCOc1ccc(-c2c(C(=O)N/N=C/c3ccoc3)nnn2-c2nonc2N)cc1
-11% | C#CCOCCOCCOCCNc1nc(N2CCN(C(=O)C(Cc3ccc(O)cc3)n3cc(C(N)C(C)CC)nn3)CC2)nc(N2CCN(C(=O)C(Cc3ccc(O)cc3)n3cc(C(N)C(C)CC)nn3)CC2)n1 (stereo unspecified)
9% | COc1ccc(NC(=O)C2CC(=O)N/C(=N/NC(=O)c3ccc(Cl)cc3)S2)cc1 (stereo unspecified)
8% | CCOC(=O)C1=C(c2ccccc2)NC(=O)NC1c1ccc(N(C)C)cc1 (stereo unspecified)
-18% | COc1ccc(NC(=O)CSc2nnc(Cc3ccccc3)c(=O)n2N)c(OC)c1
-3% | CCCCCCc1nc(C(N)=O)c2[nH]c(=O)n(-c3ccccc3F)c2n1
1% | COc1ccc(CNC(=O)c2cc3c(s2)-c2c(C)cccc2OC3)cc1
4% | COc1ccc(NC(=O)COc2ccc(C(=O)NC3CCCc4ccccc43)cc2OC)cc1 (stereo unspecified)
-12% | O=C(Nc1nc2c(s1)COc1ccccc1-2)c1cccs1
7% | O=C(OCC(=O)N1CCc2ccccc21)c1cc(S(=O)(=O)N2CCOCC2)ccc1F
-6% | COc1ccc(CCNC(=O)CCN2C(=O)c3cccc4cccc(c34)C2=O)cc1OC
-18% | CCn1c(SCc2cc(=O)[nH]c3ccccc23)nc2c1c(=O)n(C)c(=O)n2C

# Single entries from the list:
# In VDR inh, COc1ccc(NC(=O)CSc2nnc(Cc3ccccc3)c(=O)n2N)c(OC)c1 reads -18%
# In VDR inh, COc1ccc(CCNC(=O)CCN2C(=O)c3cccc4cccc(c34)C2=O)cc1OC reads -6%

# Remaining list, next part.
VDR inh | compound
15% | CCN(CC(=O)Nc1ccccc1C(F)(F)F)C(=O)CCc1nc2ccccc2c(=O)[nH]1
-7% | COc1ccccc1CNC(=O)c1ccc2c(c1)N(Cc1ccc(C)cc1)CCS2
-8% | Cc1onc(-c2ccccc2Cl)c1C(=O)Nc1nn[nH]n1
13% | Cc1cc(-c2csc(N)n2)c(C)n1-c1ccccc1
-27% | Cc1cccc(N2CCN(S(=O)(=O)c3ccc4c(c3)OCCO4)CC2)c1C
-13%&-7%&-8%&-22% | CSc1ccc2c(c1)N(CCC1CCCCN1C)c1ccccc1S2 (stereo unspecified)
-15% | CCCCC1CCC(C(=O)N2CCOCC2)CC1 (stereo unspecified)
8% | Cc1[nH]c(=O)[nH]c(=O)c1S(=O)(=O)N(CC(C)C)CC(C)C
-9% | CC(C)(C)c1cc(NC(=O)NN2CCOCC2)nn1-c1c(Cl)cc(Cl)cc1Cl
4% | O=C(c1ccc2c(c1)C(=O)N(Cc1ccco1)C2=O)N1CCOCC1
8% | CSc1ncc(C(=O)NCc2ccc(F)cc2)c(-c2ccccc2)n1
-3% | O=C(c1cc(C(=O)N2CCN(c3ccc(F)cc3)CC2)cc([N+](=O)[O-])c1)N1CCN(c2ccc(F)cc2)CC1
-20% | CCOC(=O)c1c(NC(=O)C2C3C=CC(C3)C2C(=O)O)sc2c1CCC(C)C2 (stereo unspecified)
11%&1% | CCOC(=O)c1nc(Nc2ccc(C(=O)OC)cc2)c2ccccc2n1
-3% | c1ccc2c(c1)CNc1ccccc1-2
0% | CC(C)C[C@@H](CSc1ccccc1)N1CCN(C)CCC1=O

# The list goes on, starting with the last three of the part before.
VDR inh | compound
11%&1% | CCOC(=O)c1nc(Nc2ccc(C(=O)OC)cc2)c2ccccc2n1
-3% | c1ccc2c(c1)CNc1ccccc1-2
0% | CC(C)C[C@@H](CSc1ccccc1)N1CCN(C)CCC1=O
-17% | CC(C)C(C)NC(=O)CSc1nc2scc(-c3ccco3)c2c(=O)n1-c1ccccc1 (stereo unspecified)
-8% | O=C(C[n+]1ccccc1)N/N=C/c1cc(Br)ccc1F
-7% | COc1cc(OC)c(OC)cc1CNC(=O)c1cc(=O)c2ccccc2o1
12% | CC(C)CC(C(=O)OCC(=O)Nc1ncc(Cl)cc1Cl)N1C(=O)c2ccccc2C1=O (stereo unspecified)
4% | CC(C)C(c1nnnn1Cc1ccc(F)cc1)N1CCC(C(N)=O)CC1 (stereo unspecified)
-3% | N#CCCn1nc(-c2ccc([N+](=O)[O-])cc2)cc1Nc1ccccc1NC(=O)C(F)(F)F
3% | COC(=O)N/N=C/c1ccc(-c2cc(Cl)ccc2Cl)o1
22% | C/C(N)=C(/C#N)C(=O)CSc1nc2ccc(C)cc2[nH]1
-1% | CCc1ccc(CNC(=O)c2ccc3nc(C(C)C)oc3c2)cc1
8% | CC1CN(C(=O)CNC(=O)COc2ccccc2)CC(C)O1 (stereo unspecified)
3% | CC(C)(C)NC(=O)C(c1ccccc1)N(C(=O)c1ccco1)C1CC1 (stereo unspecified)
11% | Cn1c(SCc2cnc(-c3ccccc3)s2)nnc1C1COc2ccccc2O1 (stereo unspecified)
8% | CC(C)NC(=O)CSc1ccccc1C(=O)NCc1ccc2c(c1)OCO2
9% | Cc1ccccc1C(=O)n1nc(-c2ccco2)nc1NCc1ccc(Cl)cc1
-1% | COC(=O)c1ccc(OC(=O)c2nn(C)cc2Cl)c(OC)c1
? | CC(C)Oc1ccc(C2CCC(=O)NC2=O)cc1 (stereo unspecified)
-5% | COc1ccc(N2CCN(CC(O)COc3ccc(C(C)(C)C)cc3)CC2)cc1 (stereo unspecified)
4% | O=C(NN=C1CCCCCC1)c1ccc2c(c1)OCO2
-2% | Cc1cccc(-c2c3c(=O)n(C)c(=O)n(C)c3c3nnc4ccccc4n23)c1
0% | CCOC(=O)Cc1nnc(NC(=O)CSc2nnc3c(n2)[nH]c2ccccc23)s1
10% | CCc1nnc(SCC(=O)Nc2ccc(N3CCOCC3)cc2)o1
-9% | CC(=O)Nc1cccc(C(=O)N/N=C/c2ccc(C)o2)c1
8% | C/C(=N/NC(=O)c1ccc(C)s1)c1cccc(NC(=O)COc2ccc(Cl)cc2Cl)c1
3% | COCOc1ccc(/C=C/C(=O)c2c(O)cc(OCOC)cc2OCOC)cc1
-11% | CC(C)N1C[C@@]23C=C[C@@H](O2)C(C(=O)OCc2ccccc2)[C@H]3C1=O (stereo partly specified)
-10% | CCOc1ccc(NC(=S)NC(=O)c2c(Cl)c(C)nn2C)c([N+](=O)[O-])c1
-9% | CC(NC(=O)c1ccc2c(c1)N(Cc1ccc(Cl)cc1)C(=O)c1ccccc1S2=O)c1ccccc1 (stereo unspecified)
5% | Cc1ccc(OCC(=O)NCC(=O)n2nc(C)cc2C)cc1
-9% | Cc1occc1C(=O)N1CCN(c2ncccn2)CC1
-24% | Cc1cccc(N(CC(=O)NCC2CCCO2)C(=O)CCC(=O)Nc2cc(C)on2)c1 (stereo unspecified)
-4% | C[C@]12c3[nH]c4cc(-c5ccco5)ccc4c3CCN1C(=O)[C@@H](CC(=O)NCc1ccco1)C[C@@H]2C(=O)N1CCOCC1
9% | CCOc1ccc(N(CC(=O)NCc2ccc(F)cc2)C(=O)CCC(=O)Nc2nccs2)cc1

# Four entries from above, as labelled records.
CCOc1ccc(N(CC(=O)NCc2ccc(F)cc2)C(=O)CCC(=O)Nc2nccs2)cc1
  VDR inh = 9%

Cc1occc1C(=O)N1CCN(c2ncccn2)CC1
  VDR inh = -9%

C[C@]12c3[nH]c4cc(-c5ccco5)ccc4c3CCN1C(=O)[C@@H](CC(=O)NCc1ccco1)C[C@@H]2C(=O)N1CCOCC1
  VDR inh = -4%

CC(NC(=O)c1ccc2c(c1)N(Cc1ccc(Cl)cc1)C(=O)c1ccccc1S2=O)c1ccccc1 (stereo unspecified)
  VDR inh = -9%

# (list continues)
VDR inh | compound
-2% | Cc1ccc(NC(=S)NC(=O)c2ccc(-c3ccccc3)cc2)c(C)c1
-26% | CN(C(=O)CSc1nc2ccccc2c(=O)n1-c1ccccc1Cl)C1CCS(=O)(=O)C1 (stereo unspecified)
-19% | CCCCN(CC)C(=O)Cn1cnc2ccc(S(=O)(=O)N3CCC(C)CC3)cc2c1=O
-14% | Cc1ccccc1OCC(=O)OCC(=O)c1c[nH]c2ccccc12
4% | O=C(Cc1ccc(Cl)c(Cl)c1)Nc1cccc(S(=O)(=O)N2CCOCC2)c1
-1% | COc1ccc(S(=O)(=O)Nc2c(C)n(C)n(-c3ccccc3)c2=O)cc1
8% | COc1ccc(C)cc1-n1c(SCC(=O)NCC2CCCO2)nc2c([nH]c3ccccc32)c1=O (stereo unspecified)
-12% | O=C(CC1SC(=Nc2ccc(OC(F)F)cc2)N(CCC2=CCCCC2)C1=O)Nc1ccccc1F (stereo unspecified)
-1% | Cc1ccccc1NC(=S)NNC(=O)c1ccco1
? | Cc1sc(NC(=O)C2C3CCC(O3)C2C(=O)O)c(C(=O)OC(C)C)c1-c1ccc(Cl)cc1 (stereo unspecified)
-19% | N#CC1=C(N)Oc2cc(O)c(Cl)cc2C1c1ccccc1F (stereo unspecified)
16% | CCOC(=O)N1CCN(C(=O)Cn2nc(C)n3nc(-c4ccc(CC)cc4)cc3c2=O)CC1
0% | COc1cc(CNCCc2ccccc2)cc(Br)c1OCC(=O)Nc1ccccc1C
? | CC(/C=C1\SC(=S)N(NC(=O)c2ccncc2)C1=O)=C\c1ccccc1
-9% | COc1ccccc1CNC(=O)CCc1nnc2ccc(NCCCN3CCCC3=O)nn12
-2% | O=C1CC(C(=O)Nc2ccccc2C(=O)O)C(c2ccccc2)O1 (stereo unspecified)
-3% | c1ccc2c(c1)nc(-c1ccncc1)n2CCNc1nc(CN2CCCCC2)cs1
6% | Cn1c(=NC(=O)CCl)sc2ccccc21
4% | CS(=O)(=O)N(CC(=O)NCCSc1ccccc1)c1cc(C(F)(F)F)ccc1Cl
-11% | COc1cc(/C=C/C(=O)O)cc(S(=O)(=O)Nc2ccccc2SC)c1OC
5% | COc1ccc(-c2noc(CN3CCN(c4ccccc4F)CC3)n2)cc1OC
9% | COc1ccc(-c2nc(N)nc(C)c2Oc2ccccc2Br)c(O)c1
? | CCN(Cc1ccc(OC)c(F)c1)C(=O)/C=C/c1ccc(S(=O)(=O)N2CCOCC2)cc1
-9% | COc1nc2ccccc2nc1OC
-1% | CN(C)CCCNC(=O)C[C@H]1C[C@H](C(=O)N2CCCCC2)[C@@]2(C)c3[nH]c4cc(CCC(=O)N(C)C)ccc4c3CCN2C1=O
-12% | CC1CCCC(C)N1C(=O)COC(=O)c1ccco1 (stereo unspecified)
-17% | COc1ccc(OCC(=O)N2CCN(C(=O)c3ccc(F)cc3)CC2)cc1
-8% | O=C(Nc1cc(Cl)ccc1O)C1CC(c2ccccc2Cl)=NO1 (stereo unspecified)
20% | CCOc1ccc(NC(=O)c2cnccn2)cc1
14%&-5%&17% | COC(=O)[C@H]1[C@H]2C[C@H]3c4[nH]c5ccccc5c4CCN3C[C@H]2CC[C@@H]1O
-18% | C[C@H](CO)N1C[C@H](C)[C@@H](CN(C)S(=O)(=O)c2ccccc2)Oc2c(NS(=O)(=O)c3ccccc3)cccc2C1=O
14%&1% | O=C1c2ccccc2C(=O)C1c1ccc(Br)cc1
-1% | CN(/N=C/c1c[nH]c2ccccc12)c1cnn(-c2ccc(F)c(Cl)c2)c(=O)c1Cl
-4% | C=CCNC(=O)CC(=O)N/N=C/c1cccc(Br)c1
-9% | CCN(CC)S(=O)(=O)c1ccc(NC2c3ccccc3C(=O)N2c2ccc(C)cn2)cc1 (stereo unspecified)
10% | CCSc1ccccc1C(=O)N1CCN(c2ccccc2F)CC1
6% | COc1ccc(CN2CCC(N3CC(C)OC(C)C3)CC2)c(OC)c1 (stereo unspecified)
-2% | O=C(Nc1nc(-c2ccccc2)c(-c2ccccc2)s1)c1ccc(S(=O)(=O)N2CCCCC2)cc1
-23% | O=C(CSC(=S)N1CCOCC1)N1N=CCC1c1ccccc1 (stereo unspecified)
-4% | COc1ccc(S(=O)(=O)N2CCOCC2)cc1NC(=O)c1cccc(-n2cccc2)c1

# Quoted at random: six entries already listed, in no set order.
VDR inh | compound
10% | CCc1nnc(SCC(=O)Nc2ccc(N3CCOCC3)cc2)o1
6% | COc1ccc(CN2CCC(N3CC(C)OC(C)C3)CC2)c(OC)c1 (stereo unspecified)
8% | CC1CN(C(=O)CNC(=O)COc2ccccc2)CC(C)O1 (stereo unspecified)
-19% | N#CC1=C(N)Oc2cc(O)c(Cl)cc2C1c1ccccc1F (stereo unspecified)
22% | C/C(N)=C(/C#N)C(=O)CSc1nc2ccc(C)cc2[nH]1
4% | O=C(Cc1ccc(Cl)c(Cl)c1)Nc1cccc(S(=O)(=O)N2CCOCC2)c1
